Screens deposited in PubChem by ICCB-Longwood Screening Facility, Harvard Medical School.
AID504770 = growth inhibition of E. coli YBA685, primary screen, V. cholerae RctB inhibitors; E. coli YBA685 rctB-dependent plasmid, OD600 growth, 3 h; active compounds read low; z-score (test concentration not listed); 0.27% of 130,000 active;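 active = z-score under -2 on both plates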;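 note: wells of about 30 µL received 100 nL stock; score is relative to mean and SD of the test wells; the first replicate is given; strong numbers were not always called active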
Ba CapD inh = Bacillus anthracis CapD inhibitors, primary screen, biochemical, fluorescence intensity | CapD gamma-glutamyltranspeptidase (Bacillus anthracis Ames Ancestor) | purified CapD enzyme, fluorescence intensity read-out; active compounds read low; some hits fall short of the stated cut | z-score (test concentration not listed) | 0.23% of 140,000 active | AID 492967, 2010;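 active = z-score under -4 in either of two replicates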;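 note: stock transfer was 100 nL into about 40 µL; score is relative to mean and spread of the plate; one replicate is shown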
* hit, by the source's call; x = not tested or not shown.

Sample of the layout:
smiles	AID504770	Ba CapD inh
COc1cccc(Cl)c1NC(=O)N1CCN(c2ccnc3cc(Cl)ccc23)CC1	-0.55	0.98
CN(C)/N=C/c1cc(Br)c(O)c(Br)c1	0.2	x
Cc1[nH]c2ccccc2c1SCCNC(=O)c1cc2ccccc2oc1=O	-0.2	-1.2
COC(=O)C1C(=O)NC(SC)=C(C#N)C1c1ccccc1Cl (stereo not given)	-0.6	-0.26

The listing, repeating the preview:
smiles	AID504770	Ba CapD inh
COc1cccc(Cl)c1NC(=O)N1CCN(c2ccnc3cc(Cl)ccc23)CC1	-0.55	0.98
CN(C)/N=C/c1cc(Br)c(O)c(Br)c1	0.2	x
Cc1[nH]c2ccccc2c1SCCNC(=O)c1cc2ccccc2oc1=O	-0.2	-1.2
COC(=O)C1C(=O)NC(SC)=C(C#N)C1c1ccccc1Cl (stereo not given)	-0.6	-0.26
CCCCNC(=O)Nc1ccc(OC)c(OC)c1	-0.65	x
Cc1ccc(C2CN(c3ccccc3)CC2C(=O)c2ccc(F)cc2)cc1 (stereo not given)	x	-0.55
CCOC(=O)c1c(C)oc2c1c(/C=N/N1CCOCC1)c(O)c1ccccc12	-1.4	-0.055
CC1CCc2cc(F)ccc2N1C(=O)c1ccc2nccnc2c1 (stereo not given)	0.65	-1.2
CN(C1CCCCC1)S(=O)(=O)c1ccc2c(c1)c(=O)c(C(=O)N1CCCCC1)cn2C	0.05	-0.18
O=C(CSc1nc2ccc(N=Cc3cc(Br)ccc3O)cc2s1)Nc1ccccc1	0.9	-0.46
CN(C)c1nc(Cl)nc(NCCOc2ccccc2)n1	1.9	x
CS(=O)(=O)c1ccc(NC(=O)CCCc2nc3ccccc3c(=O)[nH]2)cc1	-0.15	x
CCOc1ccc(NC2=NC(C)CS2)cc1 (stereo not given)	-0.6	0.75
Cc1cc(-c2ccc(C(C)C)c(S(=O)(=O)NC3CCCC3)c2)on1	1.1	-1.4
NS(=O)(=O)c1ccc(CCNC(=O)c2ccc3c(=O)n(Cc4ccc(Cl)cc4)c(=S)[nH]c3c2)cc1	x	0.61
COc1ccc(S(=O)(=O)Cc2ccc(C(=O)NCCCN3CCc4ccccc4C3)o2)cc1	-0.25	0.16
N/C(=N/c1nc(-c2ccccc2)cc(=O)[nH]1)Nc1ccccc1	-0.35	0.5
Cc1cccc(-n2c(C)cn3c4c(=O)n(C)c(=O)n(C)c4nc23)c1	-0.8	-0.63
Cc1ccc(C(=O)Oc2ccc(C3Oc4ccccc4C4CC(c5ccc(C)cc5)=NN43)cc2)cc1 (stereo not given)	x	0.1
COc1ccc(OC)c(Nc2nc3nonc3nc2N2CCC(C)CC2)c1	-0.85	-0.69
CCn1ncc(NC(=S)Nc2ccc3c(c2)OCO3)c1C(N)=O	-0.55	0.08
O=C(O)CC/C(=N\Nc1ccc([N+](=O)[O-])cc1)c1ccccc1	x	-3.6*
N#C/C(C(=O)c1c[nH]c2ccccc12)=C1\SCC(=O)N1c1ccccc1	-0.3	x
O=C(c1ccc(Cl)c(Cl)c1)C12CN3CN(CN(C3)C1)C2	0.55	0.79
CCC(C)(O)c1nnn(-c2nonc2N)c1C(C)(O)CC (stereo not given)	-0.2	0.1
OCCCc1n[nH]c(=S)n1-c1ccccc1	-0.55	x
O=C(NCc1ccccc1)NC1CCS(=O)(=O)C1 (stereo not given)	2	-0.27
O=c1oc(-c2ccccc2)nc2c(Br)cc(Br)cc12	1.7	-0.055
O=C(O)CCCCCN1CCN(c2ccccc2)CC1	0.15	0.42
CCOC(=O)N1CCC2(CC1)OC(=O)C(C)=C2C(=O)N1CCCC1	-0.4	0.68
COc1ccc(CN2C(=O)C3C(c4ccc(Br)cc4)OC4(C(=O)c5ccccc5C4=O)C3C2=O)cc1 (stereo not given)	x	0.93
Cc1c(C(=O)Nc2cccc(Cl)c2)sc2ncn(CC(=O)N3CCN(c4ccccn4)CC3)c(=O)c12	x	0
C=C1C(C(=O)N2CCCC2)C1C(=O)N1CCCC1 (stereo not given)	0.1	0.35
Cc1ccc(C(O)C(C)(C)C(=O)O)cc1 (stereo not given)	-0.9	-0.36
O=C(O)c1ccccc1SCCS(=O)(=O)c1ccc(Cl)cc1Cl	x	-0.03
Cc1cc2nc(CSc3ccccc3)cc(=O)n2o1	-0.75	-0.87
COc1ccccc1OCC(=O)Nc1ccccc1C(=O)NCc1cccnc1	-1.3	x
CCOc1ccc(NC(=O)CSC2=C(C#N)C(c3ccccc3)C(C(=O)Nc3ccccc3)=C(C)N2)cc1 (stereo not given)	x	-0.3
O=C1CC(c2cccc(Br)c2)Nc2ccc3ccccc3c21 (stereo not given)	-0.7	-0.39
SCc1nc2c3ccccc3ncn2n1	-0.35	x
CC(c1ccccc1)N1CCNCC1 (stereo not given)	-0.75	x
CC(=O)Oc1ccc(N2C(=O)C3C4c5ccccc5C(C(C)=O)(c5ccccc54)C3C2=O)cc1 (stereo not given)	x	-0.14
O=C(CCN1C(=O)/C(=C\c2cccs2)SC1=S)Nc1cc(Cl)ccc1O	x	-1.1
COc1ccc(CNC(=S)Nc2ccccc2)cc1	0	-0.33
Cc1ccc(OCC(=O)N(c2ccccn2)C2CCCCC2)c(C)c1	0.6	x
CCN(CC)P(=S)(c1ccc(/C=N/NC(N)=O)s1)N(CC)CC	0.2	x
CC(C)NC(=O)c1cc(-c2ccco2)nn1-c1ccc(Cl)cc1	1.2	x
O=S(=O)(NCc1cccnc1)c1ccc2[nH]c3c(c2c1)CCCC3	-0.45	-0.97
CCNC(=S)N/N=C/c1ccccc1OC(C)C	-1.6	x
C=CCn1c(SCC(=O)Nc2cc(C(=O)OC)cc(C(=O)OC)c2)nc2sc3c(c2c1=O)CCC3	x	-0.29
CC(Nc1ccc(Cl)cc1)C(=O)N/N=C/c1ccc2c(c1)OCO2 (stereo not given)	-0.7	0.03
COCc1nn2cc(-c3ccc(C)cc3C)nc2s1	0.35	-0.6
COc1ccc(N/C=C/c2onc(-c3c(Cl)cccc3Cl)c2C#N)cc1	x	0.14
O=S(=O)(Nc1cccnc1)c1cc(C(F)(F)F)cc(C(F)(F)F)c1	-0.55	0.005
COc1ccc(/C=C2\N=C(c3ccccc3)N(c3nc4ccc(C(=O)O)cc4s3)C2=O)cc1	-0.65	-0.06
O=C(O)c1nn(Cc2ccccc2)c(=O)c2ccccc12	-0.6	x

(next part)
smiles	AID504770	Ba CapD inh
COc1ccc(CNC(=O)c2cc(C(=O)c3ccc(C(C)(C)C)cc3)c[nH]2)cc1	x	-0.6
Cc1ccc(P(=S)(c2ccc(C)o2)N2CCOCC2)o1	0.15	x
COc1ccc(C)cc1NC(=O)CSc1nnc(Cn2nnc3ccccc32)n1C	-0.6	x
Cc1ccn2cc(CCNS(=O)(=O)c3ccc(Cl)s3)nc2c1	-1.5	-0.55
C=CCc1c(C)nc(SC(C)C)[nH]c1=O	1	-0.29
CCCS(=O)(=O)c1c(S(=O)(=O)CCC)c2ccc(C(N)=O)cn2c1C(=O)c1ccccc1	x	1.2
CCC(C(=O)OCn1nnc2ccccc2c1=O)c1ccccc1 (stereo not given)	-1.1	-0.035
Cc1nc(S(=O)(=O)c2ccc(Cl)cc2)c(N2CCOCC2)o1	0.85	0.22
COc1ccccc1C(=O)Nc1ccccc1N1CCN(C)CC1	-0.65	-0.12
O=C(CCc1nc(-c2ccccc2F)no1)NCCN1CCOCC1	0.05	0.2
CSC(SC)=C1C(=O)c2ccccc2N(C)S1(=O)=O	-1.1	-1.1
O=C(NCc1ccc(Cl)cc1)c1ccc(OCc2ccnc(Cl)c2)cc1	x	-0.15
COc1cccc(C2CC(c3cccs3)=NN2C(=O)CN2CCOCC2)c1OC (stereo not given)	0	x
O=C(OCCN1CCCCC1)C1(c2ccccc2)CCOc2ccccc21 (stereo not given)	x	1
CCc1ccc(NC(=O)CSc2nc3ccccc3c(=O)n2CC2CCC(C(=O)NCc3ccco3)CC2)cc1 (stereo not given)	x	-0.5
Cc1oc(-c2cc(Cl)ccc2Cl)cc1C(=O)NC(C)C	1.1	x
CCCn1c(N)c(C(=O)CN2CCCCC2)c(=O)[nH]c1=O	0.05	x
O=C(CN1CCN(Cc2ccccc2)CC1)NC(=O)NCc1ccco1	-0.1	x
CC(C)(C)NC(=O)C[n+]1cccc(/C=N/O)c1	-0.35	0.14
COc1ccc(/C=C(\NC(=O)c2ccc(C)cc2)C(=O)NCc2ccco2)cc1	x	0.2
O=C(CCNS(=O)(=O)c1ccccc1)NC12CC3CC(CC(C3)C1)C2	0.65	x
C/C(=C\c1ccccc1)CN1CCC(C(N)=O)CC1	-0.8	0.39
CC(C)(C)OC(=O)Cn1nc(C(=O)O)c2ccccc2c1=O	-1.1	x
COc1ccc(/C=c2\sc3nc(-c4ccccc4)nn3c2=O)cc1	x	-0.45
NC(=O)CSc1nc2ccccc2c(=O)n1Cc1ccc(Cl)cc1	0.7	x
CCCCn1c(=N)n(CC(O)c2ccccc2)c2ccccc21 (stereo not given)	1.1	-0.095
COc1cc2ncnc(Nc3ccc(Oc4ccccc4)cc3)c2cc1OC	x	1.2
CCOC(=O)C1CCCN(C(=O)c2ccccc2OCc2ccccc2)C1 (stereo not given)	-0.1	-0.46
O=C(CCCCl)N1CCOCC1	2.8	-1.1
O=C(Nc1ccc(Cl)c(Cl)c1)N(CCCN1CCOCC1)Cc1cccnc1	-0.55	68
COc1ccc(N=c2oc3c(C)ncc(CO)c3cc2C(=O)Nc2ccc3c(c2)OCO3)cc1	2.2	-1.1
COC(=O)C1Sc2[nH]c(=O)sc2C(c2ccc(OC)cc2)C1C(=O)OC (stereo not given)	-0.15	0.33
CC(C)(C)c1ccc(C2CC(=O)C=C(O)C2)cc1 (stereo not given)	-0.45	0.59
CCn1c(=O)c(C(=O)CN2CCc3ccccc32)c(N)n(Cc2ccccc2)c1=O	-0.9	x
CN(C)c1cccc(N(C)C)c1CNC(=O)c1ccccc1F	-0.15	0.45
CC(=O)NC(=O)c1cc2cc(Br)ccc2oc1=Nc1ccc(C(F)(F)F)cc1	x	0.88
O=C(CSc1nc2[nH]ncc2c(=O)n1-c1ccc(Cl)cc1)Nc1ccc(Br)cc1F	x	0.36
Cc1nc(C(=O)Nc2ccc(F)cc2F)nn1-c1cc(Cl)ccc1Cl	x	-1.1
C=CC(N)CCC(=O)O (stereo not given)	x	0.28
Cc1nc(SCC2=C(C(=O)OC(C)C)C(c3cccs3)C(C#N)=C(N)O2)c(C#N)c(C)c1C (stereo not given)	x	0.095
C=CCCCOC(=O)NNC(=O)CC1Sc2ccccc2NC1=O (stereo not given)	x	0.7
O=S(=O)(NC(CO)Cc1c[nH]c2ccccc12)c1ccc(Br)cc1 (stereo not given)	x	0.2
Nc1cc(C(=O)O)c(Oc2ccc(Cl)cc2Cl)cc1C(=O)O	0	64
O=C(COc1ccc(Cl)cc1Cl)NN=C(c1ccccc1)c1ccccc1	x	-0.15
O=C(O)CC1(CC(=O)Nc2cc3ccccc3cn2)CCCCC1	1.1	83
CCOC(=O)C1=C(CSc2nnc3ccccn23)NC(=O)NC1c1cccs1 (stereo not given)	-0.2	x
CCOC(=O)c1cc2occc2n1CC(=O)N1CCCCC1	0.1	x
COc1ccc(CCNc2nc3c(c(=O)[nH]c(=O)n3C)n2CC(O)COc2ccc(Cl)cc2)cc1OC (stereo not given)	x	0.02
CCOC(=O)CC1NC2CCCCC2NC1=O (stereo not given)	1.5	-0.045
COc1ccc2c(=O)c(NC(=O)NCCCN3CCCC3=O)c[nH]c2c1	-0.45	x
CC1=C(C(=O)NC(C)C)C2(CCCCC2)OC1=O	-0.5	0.26
O=C(O)C1CCCCC1C(=O)NCCc1ccncc1 (stereo not given)	-1.3	-0.56
O=C(c1ccc(Nc2nc3ccccc3n3nnnc23)cc1)N1CCOCC1	1.5	-0.83
CCc1ccc(OC(=O)COc2ccc(Br)c(C)c2)cc1	0.1	0.44
CCn1c(COc2ccc(C)cc2)nnc1SCC(=O)N1CCCc2ccccc21	0.95	x
CC1CCOC2(O1)C(=O)Nc1ccccc12 (stereo not given)	x	2.6

Continued:
smiles	AID504770	Ba CapD inh
Cn1c(Sc2ccc([N+](=O)[O-])cn2)nnc1C(F)(F)F	x	-0.68
COc1ccccc1-c1nnc(C2CCN(S(=O)(=O)c3ccc(C)cc3)CC2)o1	0.85	0.16
CN(C)S(=O)(=O)c1ccc(SCC(=O)N(CC2CCCO2)C2CCS(=O)(=O)C2)nc1 (stereo not given)	0.05	x
O=S(=O)(NCC(c1ccccc1)N1CCOCC1)c1ccccc1 (stereo not given)	-0.6	-0.42
CCS(=O)(=O)NCc1ccc2c(c1)cc(C)n2C	1.8	0.35
O=c1oc(-c2cccc3ccccc23)nc2sc3c(c12)CCCC3	x	-0.39

A draw from above in order of count of non-hydrogen atoms, smallest number first:
smiles	AID504770	Ba CapD inh
CC1CCOC2(O1)C(=O)Nc1ccccc12 (stereo not given)	x	2.6
Cn1c(Sc2ccc([N+](=O)[O-])cn2)nnc1C(F)(F)F	x	-0.68
O=S(=O)(NCC(c1ccccc1)N1CCOCC1)c1ccccc1 (stereo not given)	-0.6	-0.42
COc1ccccc1-c1nnc(C2CCN(S(=O)(=O)c3ccc(C)cc3)CC2)o1	0.85	0.16
CCn1c(COc2ccc(C)cc2)nnc1SCC(=O)N1CCCc2ccccc21	0.95	x
